# E coli growth: inhibitors of Escherichia coli growth; OD600 absorbance (test concentration not listed); OD600, 23 h; hits give low values; AID 1053175; 330,000 tested, 0.21% active;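 active means OD600 absorbance below the run mean of sample wells minus 3.6 SD, in any replicate, cut at about 0.56 in these data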;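 further: stock transfer was 300 nL into about 60 µL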
# UCH37 DUB inh: blocks the human deubiquitinase UCH37. Q9Y5K5. purified proteasome/UCH37, Ub-AMC cleavage fluorescence. inhibition, % (no concentration beside the values). 330,000 tested, 0.33% active. AID 588478;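 active means mean of two replicates above 20%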;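 further: 0% = compound-free wells with enzyme and 100% = wells lacking proteasome; stock transfer was 100 nL into about 20 µL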
#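 Reagent: Ub-AMC substrate; assay system: Proteasome-associated human UCH37 deubiquitinase; controls: no-proteasome and no-compound wells; read-out: % inhibition of Ub-AMC cleavage fluorescence; timing: 30 min preincubation with enzyme, 25 min cleavage at room temperature; signal: AMC fluorescence from Ub-AMC cleavage, excitation 355 nm, emission 460 nm; buffer or medium: Tris-HCl pH 7.4 plus ovalbumin, ATP-MgCl2, DTT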
# FGF22 binding: shifts melting point of recombinant human FGF22; Q9HCT0; calls only at 9.99 µM; 340,000 tested, 1.5% active; AID 651658; recombinant FGF22 thermal shift, SYPRO orange fluorescence; percent of sucrose octasulfate shift, DMSO zero;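 active means melting point raised past a set limit in the mean and every replicate; three in four hits are not shown here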
# Target sequence (Q9HCT0 whole entry, looked up): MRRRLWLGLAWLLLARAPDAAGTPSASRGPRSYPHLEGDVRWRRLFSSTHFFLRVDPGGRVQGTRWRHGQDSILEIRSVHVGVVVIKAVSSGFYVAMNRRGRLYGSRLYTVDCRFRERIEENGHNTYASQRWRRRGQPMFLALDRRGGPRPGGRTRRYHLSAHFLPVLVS
# HNF4A DNA FP: change in binding of human HNF4 alpha to DNA; HNF4a-FITC DNA binding, fluorescence polarization, 1 h; activity change, % at 10 µM; 360,000 tested, 0.3% active; AID 1224865; in the data active means activity change above about 30%, passing the limit was not always enough;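 further: controls were the assay level and a saturating level of protein; the project sought stronger binding though the title names inhibitors; some compounds called inactive have numbers as strong as hits; positive values seem to mean higher polarization but the record does not say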
# Target sequence (P41235 whole entry, looked up): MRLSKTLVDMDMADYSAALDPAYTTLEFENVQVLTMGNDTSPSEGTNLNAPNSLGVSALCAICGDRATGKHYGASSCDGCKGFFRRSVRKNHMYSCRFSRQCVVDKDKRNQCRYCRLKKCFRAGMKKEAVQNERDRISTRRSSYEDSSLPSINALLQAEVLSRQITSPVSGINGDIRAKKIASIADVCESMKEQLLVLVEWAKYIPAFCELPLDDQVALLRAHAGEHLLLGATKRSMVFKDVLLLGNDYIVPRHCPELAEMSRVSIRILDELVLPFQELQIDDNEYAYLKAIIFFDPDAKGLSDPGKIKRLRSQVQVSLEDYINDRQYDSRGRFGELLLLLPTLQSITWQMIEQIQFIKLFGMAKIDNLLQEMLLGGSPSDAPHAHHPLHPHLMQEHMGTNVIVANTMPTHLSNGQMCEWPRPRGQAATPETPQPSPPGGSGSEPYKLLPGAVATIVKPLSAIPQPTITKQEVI
# rRNA inh HTS: selective bacterial rRNA inhibition in E. coli; 350,000 tested, 1.6% active; E. coli WT GFP vs humanized-ribosome RFP mutants, fluorescence, 24 h; hits give low values; DMSO median 0, no signal -100; AID 720706; GFP signal change (wild-type ribosome), % (test concentration not listed);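 active means significant combined selectivity score with lowered wild-type GFP, culture density cut under 30%, mutant RFP and density less affected; inactive means any of these conditions unmet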; further: one replicate is shown; some compounds called inactive have numbers as strong as hits
# ALR inh: inhibitors of human sulfhydryl oxidase ALR; P55789; purified ALR, DTT oxidation, H2O2 HRP-luminol luminescence; inhibition, % (test concentration not listed); 290,000 tested, 3.8% active;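 active means mean and each replicate at 75% or more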;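 further: stock transfer was 7.5 nL into about 7.5 µL; 0% = neutral wells and 100% = wells with inactivated enzyme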
# B2AR ag: human beta-2 adrenergic receptor agonism by FAP. AID 504454. Am2.2-beta2AR cells, FAP receptor internalization, flow cytometry; reference of the scale not given here. P07550. 340,000 tested, 0.43% active. response, % (test concentration not listed);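 active means response above a set limit, near 3 SD of response in nonfluorescent compounds, cut at about 42% in these data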;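 further: stock transfer was 100 nL into about 11 µL; a reference agonist was the positive control; negative values mostly stem from fluorescent compounds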
# Target sequence (P07550 whole entry, looked up): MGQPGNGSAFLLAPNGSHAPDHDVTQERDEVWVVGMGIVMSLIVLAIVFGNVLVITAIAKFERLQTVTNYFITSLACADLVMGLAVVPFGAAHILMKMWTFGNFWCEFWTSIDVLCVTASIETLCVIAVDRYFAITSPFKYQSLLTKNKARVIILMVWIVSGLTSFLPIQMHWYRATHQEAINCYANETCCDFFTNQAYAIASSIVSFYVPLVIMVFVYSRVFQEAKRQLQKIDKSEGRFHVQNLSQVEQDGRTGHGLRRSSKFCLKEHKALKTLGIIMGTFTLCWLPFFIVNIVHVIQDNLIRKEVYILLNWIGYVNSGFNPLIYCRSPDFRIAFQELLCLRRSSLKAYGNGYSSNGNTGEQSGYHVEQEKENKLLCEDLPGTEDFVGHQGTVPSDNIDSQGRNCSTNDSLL
# rRNA inh HTS OD600: recorded beside rRNA inh HTS, whose call it bears; OD600 change, %; measured here: OD600 growth;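 optical density of the mix in the first replicate; 0 = DMSO median and -100 = no signal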
# rRNA inh HTS RFP: recorded beside rRNA inh HTS, whose call it bears; RFP signal change, %; measured here: RFP humanized mutant strains;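 first replicate; 0 = DMSO median and -100 = no signal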
# An asterisk follows results filed as active; i = inactive; x = not tested or not shown; & = joins results of further samples.
SMILES,E coli growth,UCH37 DUB inh,FGF22 binding,HNF4A DNA FP,rRNA inh HTS,rRNA inh HTS OD600,rRNA inh HTS RFP,ALR inh,B2AR ag
COc1cc(N/N=C/c2ccccc2O)ncn1,x,x,x,2.2,x,x,x,21.4,-8.6
Cc1cc(C)nc(NS(=O)(=O)c2ccc(NC(=O)c3ccccc3[N+](=O)[O-])cc2)n1,0.635,0.1,i,2.7,17.9,5.5,-1.6,-1.7,0.1
O=C(O)CC(Cc1ccc(Br)cc1)C(=O)O (stereo not drawn),0.676,0.3,x,4.3,x,x,x,-8.4,-0.5
CN(c1cccc(NC(=O)COc2ccccc2)c1)S(C)(=O)=O,0.69,1.2,x,1.8,x,x,x,-4.2,8.6
CC(OC(=O)CCCc1nc2ccccc2s1)C(=O)NC(N)=O (stereo not drawn),0.74,3.8,i,-2.2,0.4,4.4,-1.4,x,-2.7
O=C(c1ccc[nH]1)N1O[C@@H]2C=C[C@H]1C2,0.725,0.3,i,-3.7,0.8,-3.5,-2.7,x,-1.9
Cc1ccc(-c2nnn(CC(=O)N(c3cccc(F)c3)C(C(=O)NC3CCCC3)c3ccncc3)n2)o1 (stereo not drawn),0.689,5.4,i,-0.7,11.4,11.7,0.8,-7.1,1.4
COc1ccc(C(=O)Nc2cccc(-c3ccc4nncn4n3)c2)cc1,0.67,3.2,x,0.3,8.3,4.6,2.6,-12.4,6.2
CCCN1CCN(C(=O)Nc2cccc(C(F)(F)F)c2)CC1,0.656,1.0,i,3.4,-56.0,-79.5,-22.1,-25.0,0.7
CC(=O)c1ccc(NC(=O)CSc2ccsc2[N+](=O)[O-])cc1,0.676,1.4,i,-4.6,0.6,6.8,1.7,x,2.7
Cc1oc(C(C)(C)C)cc1C(=O)Nc1cccc(/C=C/C(=O)O)c1,0.644,1.8,x,0.7,x,x,x,-1.1,-4.3
CCOC(=O)N1CCC(=NNc2ccc(S(=O)(=O)N3CCOCC3)cc2[N+](=O)[O-])CC1,0.674,8.8,i,0.2,x,x,x,3.2,2.4
CNc1nc(-c2ccc3c(c2)CCN3S(=O)(=O)c2ccccc2)c(C)s1,0.679,-0.5,i,-3.6,-4.9,-5.0,4.9,-2.1,4.5
CC(NC(=O)c1cn(C)c2ccc(S(=O)(=O)N3CCCC3)cc2c1=O)c1ccc2c(c1)OCCO2 (stereo not drawn),0.722,3.0,x,-0.9,x,x,x,-8.8,-16.4
Cn1c(=O)oc2cc(S(=O)(=O)N3CCC(C(=O)N4CC=C(c5ccccc5)CC4)CC3)ccc21,0.777,1.9,i,0.6,5.6,3.1,2.7,x,-15.4
S=c1[nH]cc(-c2ccc(Cl)cc2)n1-c1ccccc1,0.69,-0.4,i,-1.8,3.2,2.3,-1.7,x,-5.7
O=C(OCn1ncc(Br)c(Br)c1=O)c1ccccc1Cl,0.654,3.2,x,-3.8,-20.1*,6.2*,-7.5*,20.2,48.9*
CC(C)(C)c1ccc(OC2=CS(=O)(=O)c3ccccc32)cc1,0.7,4.5,x,-1.9,-3.1,3.4,-3.0,4.6,5.0
O=C(NCCCc1nc2ccccc2[nH]1)c1ccc(F)cc1,0.677,4.7,i,-0.3,-1.7,7.4,-1.3,-4.8,-3.1
Cc1cccnc1NC(=S)NC(=O)/C=C/c1ccco1,0.761,5.6,x,0.4,x,x,x,12.6,10.9

# Complete entries, quoted from the list. Order of values: E coli growth, UCH37 DUB inh, FGF22 binding, HNF4A DNA FP, rRNA inh HTS, rRNA inh HTS OD600, rRNA inh HTS RFP, ALR inh, B2AR ag
# `Cc1oc(C(C)(C)C)cc1C(=O)Nc1cccc(/C=C/C(=O)O)c1` is listed with 0.644, 1.8, x, 0.7, x, x, x, -1.1, -4.3
# `CC(NC(=O)c1cn(C)c2ccc(S(=O)(=O)N3CCCC3)cc2c1=O)c1ccc2c(c1)OCCO2` (stereo not drawn) is listed with 0.722, 3.0, x, -0.9, x, x, x, -8.8, -16.4

# (listing goes on)
SMILES,E coli growth,UCH37 DUB inh,FGF22 binding,HNF4A DNA FP,rRNA inh HTS,rRNA inh HTS OD600,rRNA inh HTS RFP,ALR inh,B2AR ag
O=C(Nc1nnc(COc2ccccc2)s1)C1CCN(S(=O)(=O)c2ccc(Cl)cc2)CC1,0.75,-1.2,x,-2.7,x,x,x,-1.3,12.3
O=[N+]([O-])c1c(NCCCO)cc(Sc2nc3ccccc3s2)c2nonc12,0.628,11.6,x,2.3,5.5,4.2,-3.2,-35.0,96.1*
COc1ccc(-c2cc(=O)oc3cc(OCC(=O)c4cccc([N+](=O)[O-])c4)ccc23)cc1,0.699,1.6,i,x,3.1,3.2,-3.6,x,x
CCCCCCCCCCCCCCCC(O)C[N+](C)(C)CCO (stereo not drawn),x,x,i,6.7,-65.7,-70.0,-16.1,x,0.6
Cc1ccc(S(=O)(=O)N2CC3C(=O)C[C@@H](c4ccccc4)N(S(=O)(=O)c4ccccc4Cl)C3CC2c2ccccc2)cc1 (stereo partly drawn),x,x,i,1.3,23.6,15.7,1.0,x,x
Cc1onc(-c2c(Cl)cccc2Cl)c1C(=O)NC(=S)N1CCOCC1,0.658,4.6,i,0.4,-52.0,-73.8,-15.5,-4.3,-2.9
O=S(=O)(NCC(O)c1ccccc1)c1ccc(-c2ccccn2)s1 (stereo not drawn),0.638,4.6,i,3.3,-10.4,-2.0,1.1,-3.6,-9.8
CC(C(=O)Nc1ccc(S(=O)(=O)N2CCCC2)cc1)N(C)CC(=O)Nc1cccc(F)c1 (stereo not drawn),0.651,4.8,i,-4.3,-9.4,-22.1,1.3,-7.2,1.9
COc1ccc2c(-c3cccnc3)cc(=O)[nH]c2c1,0.695,-14.6,x,2.9,x,x,x,-2.7,-2.3
CCOC(=O)Cc1nc(-c2ccc(Cl)cc2)n[nH]1,0.682,1.3,i,2.9,-1.9,0.3,-3.9,-16.3,15.7
O=C(c1ccccc1)N(c1ccccc1)c1nccc2ccccc12,x,x,i,2.5,-28.0*,-11.7*,5.4*,x,10.3
Cc1cc(C(=O)CSc2nnnn2C)c(C)n1CCc1ccc(Cl)cc1,0.737,4.3,x,3.2,x,x,x,-2.6,-2.4
Cc1ccc(CO/N=C\Cc2snc(Sc3ncc(C(F)(F)F)cc3Cl)c2C#N)cc1,x,x,x,19.9,x,x,x,40.3,5.3
CC(CCc1ccco1)NC(=O)Cn1ncc2c(=O)oc3ccccc3c21 (stereo not drawn),0.665,1.0,i,-0.8,3.3,9.0,-1.2,-1.1,0.1
CN(C(=O)COC(=O)C1CCN(S(=O)(=O)c2c(Cl)cccc2Cl)CC1)C1CCCCC1,0.677,3.6,i,-3.2,-8.8,-27.9,2.2,-8.7,-0.4
CC(C)CNC(=O)C(=O)Nc1ccc2c(c1)N(S(=O)(=O)c1cccs1)CCC2,0.643,0.7,i,3.3,-1.9,-0.7,-1.1,-2.7,0.3
CCn1c(C)nc2cc(C(=O)NNC(=S)Nc3ccccc3Cl)ccc21,0.713,2.3,x,3.2,x,x,x,x,-0.1
C=CCn1c(Cc2cccs2)nnc1SCC(=O)NC1CC1,0.73,0.2,i,-1.2,13.0,4.6,-1.1,-8.9,-5.6
CC(C)(CO)NS(=O)(=O)c1ccc2c(c1)Cc1cc(S(=O)(=O)NC(C)(C)CO)ccc1-2,0.648,2.4,i,2.5,-12.2,-11.4,-0.9,33.4,0.1
Cc1c(C(=O)NCc2ccc(S(N)(=O)=O)cc2)oc2ccc(Cl)cc12,0.668,-0.6,i,-2.1,6.1,4.9,1.2,0.2,2.6
Cc1ccc(-c2nn(C)c(=O)c3ccccc23)cc1CNC(=O)NC1CCCCC1,0.693,1.1,i,3.1,14.1,8.0,-3.2,1.7,-3.1
O=C(Nc1ccccc1)c1cc(C2CCCCN2C(=O)c2ccccc2)on1 (stereo not drawn),x,x,i,-1.3,-3.2,-20.4,5.3,x,x
O=C(COc1ccc(Br)cc1)NCCCN1CCCC1=O,0.704,3.0,i,-2.4,7.3,6.3,-1.3,x,-7.8
CC1=NN(C(=O)c2nn(C)cc2Br)C(O)(C(F)(F)F)C1 (stereo not drawn),0.69,3.5,i,-3.0,-18.6,-19.5,14.9,-1.8,-1.3
COc1cc(OC)c(C(=O)OCC(=O)Nc2ccccc2Cl)cc1OC,0.655,1.8,i,0.4,-3.3,-7.4,0.3,-7.9,3.1
COc1ccc(C(NC(=O)c2ccco2)c2ccc(OC)c(OC)c2)cc1OC,0.694,4.9,i,0.8,11.8,10.8,0.0,1.1,4.5
O=C(c1cccc(S(=O)(=O)N2CCCCCC2)c1)N1CCN(c2ccccc2)CC1,0.675,3.4,i,-2.1,-25.4,-34.5,-2.5,3.8,-5.5
Cc1ccsc1C(=O)Nc1ccc(C(=O)O)cc1,0.665,3.0,x,1.6,x,x,x,-8.0,-0.3
O=C(CN1C(=O)NC2(CCCc3ccccc32)C1=O)N1CCc2ccccc2C1 (stereo not drawn),0.756,-1.4,x,0.8,x,x,x,-19.4,1.7
C[n+]1cccc2c(Br)ccc([O-])c21,0.648,5.0,i,-1.2,-0.4,-5.5,-1.9,53.5,3.0
COc1cccc(NC(=O)N2CCN(S(C)(=O)=O)CC2)c1,0.728,-6.2,i,3.3,12.8,9.8,4.7,-11.7,0.7
CCCCNC(=O)c1cc2nc(-c3ccccc3)cc(C(F)(F)F)n2n1,0.643,-14.0,i,1.6,10.7,10.0,0.2,-7.2,-6.2
COc1ccc2cc(C#CC3=CC(=O)C[C@H](c4ccc(F)cc4)C3)ccc2c1,x,x,i,10.6,8.0,10.9,3.1,x,x
CCCn1c(SC(C)C(=O)NC2CC2)nnc1-c1ccncc1 (stereo not drawn),0.686,3.6,i,-4.2,10.4,11.6,-2.0,1.7,-3.1
O=C1c2ccccc2C(=O)C1C(=O)C1CC1,0.636,2.6,i,10.2,5.3,7.2,1.2,x,-6.4
COc1ccc2c(c1OC)C(=O)OC2Nc1nc(-c2cc3cc(Br)ccc3oc2=O)cs1 (stereo not drawn),0.636,-8.1,i,-2.8,-25.9*,-16.4*,-1.0*,6.1,-0.5
Cc1noc(C)c1NC(=O)N(C)C[C@@H]1OCc2cn(nn2)CCCC(=O)N([C@H](C)CO)C[C@H]1C,x,x,i,2.5,5.9&1.0,18.7&0.2,4.2&0.7,x,x
O=C(C1=C[C@@H](C2CC2)C[C@@H](OCCCCO)O1)N1CCN(Cc2ccc3c(c2)OCO3)CC1,x,-0.3,i,-4.1,-1.9,0.4,-7.0,-14.4,1.5
O=C(NCCc1ccccc1)c1ccc(=O)[nH]c1,0.718,2.1,x,-0.5,x,x,x,x,3.5
COc1cc2c(cc1OC)C(c1ccc(-c3ccccc3Cl)o1)=NCC2,0.647,4.6,i,-2.4,-56.8,-82.2,-30.3,4.0,-1.6
CO/N=C/c1ccc(N2CCN(C(=O)c3cccc(C(F)(F)F)c3)CC2)c([N+](=O)[O-])c1,x,x,x,-1.5,-18.8,-24.6,-5.0,-16.9,1.2
Cc1cc(C)n(-c2ccc(C(=O)OCc3ccccc3)cc2)n1,0.681,0.8,i,-1.4,-26.9,-42.2,7.6,-3.3,-14.7
C=CCn1c(=O)c2ccccc2n2c(SCC(C)=O)nnc12,0.674,5.0,i,-0.1,6.1,9.7,0.0,14.9,-5.6
CCOc1ccc(S(=O)(=O)N2CCCC(C(=O)NCc3ccncc3)C2)cc1C (stereo not drawn),0.664,-1.2,i,-4.4,-4.3,6.4,1.7,-2.3,-13.0
O=C(O)CCCn1cc(NC(=O)c2sc3ccccc3c2Cl)cn1,0.677,3.8,i,2.8,-10.6,-20.0,-6.0,9.0,-7.3
CCSc1n[nH]c(=O)[nH]c1=O,0.729,6.1,x,-2.7,x,x,x,-12.9,-2.7

# Assay outcomes as filed in PubChem BioAssay.

# An excerpt, so the mix of outcomes need not match the whole.
